VACV Venus inh = qHTS for Stage-Specific Inhibitors of Vaccinia Orthopoxvirus: Venus Reporter Primary qHTS | Potency, µM (top dose mostly 36.5 µM), inactives show at the top dose activity change, negative = inhibition, usual class: inhibitors | Vaccinia virus Venus reporter expression, fluorescence | 330,000 compounds, 0.46% hits; active means well fitted inhibition curve with a large enough effect; inconclusive means small, poorly fitted or top-dose-only effect; inactive means no such curve, though single readings can be large or run the other way; tested in A549 cells; note: nearly all actives have a fitted effect of over 30% in size; inactives centre near -10
VACV mCherry inh = qHTS for Stage-Specific Inhibitors of Vaccinia Orthopoxvirus: mCherry Reporter Primary qHTS; Vaccinia virus mCherry reporter infection, fluorescence; about a quarter of the inactives have no number; Potency, µM (titrated, usually from 36.5 µM), without a hit: top-dose activity change, negative = inhibition, hits mostly inhibitors; 310,000 compounds, 0.63% hits; active = well fitted inhibition curve with a large enough effect; inconclusive = small, poorly fitted or top-dose-only effect; inactive = no such curve, though single readings can be large or run the other way; tested in A549 cells; note: nearly all actives have a fitted effect of over 35% in size; inactives centre near -10
The depositor's hits bear a star; i = inactive; ? = inconclusive; / = no result given; & = joins results of further samples; [ ] = remark or other dose. % is set by controls: 0 for no effect and ±100 for the full control effect; potency is the fitted concentration of half-maximal effect.

Second line of a record – VACV Venus inh	VACV mCherry inh
Cc1cc(C(=O)CSc2nc3ccccc3o2)c(C)n1CC1CCCO1 (stereo not given)
    -13%	/
CC1CCC(NC(=O)COC(=O)c2n[nH]c(=O)c3ccccc23)CC1 (stereo not given)
    -10%	i
Cc1ccc(C)c(OCc2cc(C(=O)N3CCc4sccc4C3)no2)c1
    -10%	-13%
COc1ccc2c(c1)cc1c(=O)n(CC(=O)NCc3ccco3)nc(C)n12
    8%	11%
CN(Cc1ccccc1)C(=O)c1[nH]cnc1C(=O)Nc1ccc(Br)cc1F
    -25%	-18%
Cc1nn(CC(=O)Nc2ccc(Cl)cn2)c(C)c1Br
    -9%	-12%
COCCNC(=O)C(c1ccccc1)N(Cc1cccs1)C(=O)Cn1nnc2ccccc21 (stereo not given)
    -3%	-10%
Oc1ccc(Cl)cc1
    -11%&-15%	-16%
CCCCn1c(SCC(=O)NC2CCCC2)nc2ccccc2c1=O
    -12%	-8%
COC(=O)C1C(OC(=O)c2ccccc2)CC2CCC1N2C (stereo not given)
    -10%&6%	-1%&8%

Sorted by SMILES length (low to high): part of the list above.
Second line of a record – VACV Venus inh	VACV mCherry inh
Oc1ccc(Cl)cc1
    -11%&-15%	-16%
COC(=O)C1C(OC(=O)c2ccccc2)CC2CCC1N2C (stereo not given)
    -10%&6%	-1%&8%
CCCCn1c(SCC(=O)NC2CCCC2)nc2ccccc2c1=O
    -12%	-8%
Cc1ccc(C)c(OCc2cc(C(=O)N3CCc4sccc4C3)no2)c1
    -10%	-13%
CN(Cc1ccccc1)C(=O)c1[nH]cnc1C(=O)Nc1ccc(Br)cc1F
    -25%	-18%
COCCNC(=O)C(c1ccccc1)N(Cc1cccs1)C(=O)Cn1nnc2ccccc21 (stereo not given)
    -3%	-10%

(listing goes on)
Second line of a record – VACV Venus inh	VACV mCherry inh
Cc1ccc(CNC(=O)CCCn2c(=O)c3ccccc3n(CC(=O)Nc3ccc(C)c(C)c3)c2=O)cc1
    -15%	-16%
CCC(=O)N1CCc2cc(S(=O)(=O)CCC(=O)N3CCN(c4ccc(Cl)cc4)CC3)ccc21
    -28%[7.34 µM]	-5%[7.34 µM]
CCC(c1nnnn1-c1ccc(OC)cc1)N1CCC(n2c(=O)[nH]c3ccccc32)CC1 (stereo not given)
    -1%	i
Cc1ccc2nc(-c3ccc(Cl)c(NC(=O)COc4ccc([N+](=O)[O-])cc4)c3)oc2c1
    -6%	-7%
O=C(Nc1ccccc1N1CCCC1)c1cc(Cl)ccc1Cl
    0%	-6%
CCOC(=O)c1cccc(NC(=O)CSc2nnc(-c3cccnc3)n2C)c1
    -16%	-12%
CCCCCCNc1nc(Cl)nc(NC(C)(C)CO)n1
    -9%[7.34 µM]	-23%[7.34 µM]
Cn1nc(C(=O)Nc2sc3c(c2C#N)CCCC3)ccc1=O
    0%	-21%
COCCCNC(=O)CSc1nc(-c2ccc(OC)c(OC)c2)[nH]c1-c1ccc(F)cc1
    -9%	-4%
Cc1ccccc1C(=O)Nc1ccnn1C1CCN(Cc2cnn(C)c2)CC1
    1%	i
COc1ccc(S(=O)(=O)NCc2ccco2)cc1NC(=O)c1ccccc1
    -22%	i
CN(C)/C=C/C(=O)c1cccc([N+](=O)[O-])c1
    1%	4%
CCCCn1c(=O)[nH]c(=O)c2c1nc(-c1ccc(-c3ccccc3)cc1)n2C
    -6%	-16%
Cc1onc(-c2c(F)cccc2Cl)c1C(=O)OCn1nnc2ccccc2c1=O
    -21%	i
CSc1nc(-c2ccco2)cc(-c2ccccc2)c1C#N
    -13%	-4%
O=c1[nH][nH]c2c1C(C1CCCCC1)OC(C1CCCCC1)C2 (stereo not given)
    -24%	-2%
CCC(C)NC(=O)C1CCCN1S(=O)(=O)c1ccc(Cl)cc1 (stereo not given)
    -9%	?
C=C(C)C1CC=C(C)/C(=N/NC(=O)c2ccccc2[N+](=O)[O-])C1 (stereo not given)
    -13%	-13%
COc1ccc(C(CNC(=O)COc2ccccc2C)N2CCCC2)cc1 (stereo not given)
    -9%	-20%
CC(C)(O)CCc1c(-c2ccc(O)cc2O)oc2c3c(cc(O)c2c1=O)OC(C)(C)C=C3
    -10%	-27%
CCS(=O)c1ccccc1C(=O)O (stereo not given)
    4%	-5%
COc1cccc(NC(=O)N2CCC(NC(=O)C(Cc3ccccc3F)NC(C)=O)CC2)c1 (stereo not given)
    -6%	-10%
CCn1cc(CN2CCC(C(=O)Nc3cccc(-c4cccc(Cl)c4)c3)CC2)cn1
    -25%	-8%
CSCC[C@H](NC(=O)Nc1ccc(C)cc1C)C(=O)O
    -9%	/
CCc1cc2c(-c3ccccc3)cc(=O)oc2cc1OCC(C)=O
    -9%	-19%
CN(CC(=O)N1CCCCCC1)S(=O)(=O)c1ccc(Br)s1
    -5%	/
COc1cc(NC(=O)CCNS(=O)(=O)c2ccc3c(c2)CCN3C(=O)C2CC2)cc(OC)c1
    -1%	-2%
CC1CCN(C(=O)COC(=O)c2ccc(F)c(S(=O)(=O)N3CCOCC3)c2)CC1
    -10%	i
COCCNC(=O)c1onc(CSc2nc3ccccc3[nH]2)c1C(=O)NCCOC
    -8%	-9%
Cc1cccc(-c2nnc(SCC(=O)N3CCCc4ccccc43)o2)c1
    -15%	-13%
CCOC(=O)CC(NC(=O)Cn1nnc(-c2ccc(Cl)cc2)n1)c1ccc(OC)cc1 (stereo not given)
    3%	2%
O=C1C2C(C(=O)N1/N=C/c1ccco1)C1C=CC2C12CC2 (stereo not given)
    -7%	-3%
O=C(NCC1CCCO1)c1ccc(C(=O)NCC2CCCO2)cc1 (stereo not given)
    -25%	/
Cn1ccc2c(-c3cccc(C=O)c3)cc3c(c21)C1CCC3C1 (stereo not given)
    -13%	-2%
O=C(NCCc1c[nH]c2ccccc12)c1ccc(Br)o1
    -4%	-24%
O=C(c1cccc2c1-c1ccccc1C2)N1CCCCC1
    -6%	i
COCCn1c(CNC(=O)c2cccc(C)c2)nc2cccnc21
    4%	-8%
CCN(CC)S(=O)(=O)c1ccc(Oc2ccccc2)c(N)c1
    -15%	-15%
CCOc1ccc(OCCC(=O)N(CCCOC)c2c(N)n(Cc3ccccc3)c(=O)[nH]c2=O)cc1
    -2%	-18%
Cc1ccc(OCC(=O)NCCCNC(=O)c2ccco2)cc1
    0%	-15%
O=C(NCC1CCCO1)/C(=C/c1ccccc1F)NC(=O)c1ccccc1 (stereo not given)
    -8%	-14%
O=C1OCCC1Sc1nnc(-c2ccc(F)cc2)n1Cc1ccccc1 (stereo not given)
    -8%	i
Cc1nc2sccn2c(=O)c1S(=O)(=O)NCCc1ccccc1
    -7%	i
CCOc1ccc(-n2ccnc2SCC(=O)Nc2nnc(CC)s2)cc1
    ?	/
C#CCNC(=O)c1cc(-c2ccccc2)sc1N
    -12%	?
Cc1ccn2cc(-c3cccc(NC(=O)c4ccccc4)c3)nc2c1
    -5%	-7%
Cc1ccc2c(c1)C1CN(C)CCC1N2C(=O)Cc1cccs1 (stereo not given)
    -6%	-17%
COc1ccc(NC2=C(C(C)=O)C(c3ccccc3)C(C(C)=O)C(C)(O)C2)cc1 (stereo not given)
    -9%	-6%
Cc1ccc(S(=O)(=O)N2CCOCC2)cc1NC(=O)CN1C(=O)NC2(CCCC2)C1=O
    -1%	-16%
Cn1c(=N)n(CC(=O)c2ccc(Br)s2)c2ccccc21
    -20%	-27%

Remaining list, next part
Second line of a record – VACV Venus inh	VACV mCherry inh
O=C(Nc1cc(-c2ccccc2F)nn1-c1ccccc1)c1ccccc1Br
    -5%	-15%
Cc1cccc(C(=O)NC2CCN(CC(=O)NCc3ccccc3F)CC2)c1
    5%	?
COc1cc2c(cc1OC)C1=CC(=O)C(=O)N1C(C)(C)C2
    /	38%[activator]
C=CCn1c(SCC(=O)N(C)C2CCCCC2)nnc1C1CC1
    -9%	i
C=C(C1=CCN(S(=O)C(C)(C)C)[C@@H]1CCO)c1ccccc1 (stereo not given in full)
    -24%	i
O=C(COc1ccc(Br)cc1)N1CCOCC1
    -6%	-14%
CN/C(=C\[N+](=O)[O-])NCCSCc1ccc(CN(C)C)o1
    -7%&-14%&-4%	-10%&-19%&-14%
C/C(=N/NC(=O)C(C)n1nc(C)c([N+](=O)[O-])c1C)c1ccc(OCC(N)=O)cc1 (stereo not given)
    15%	i
CCC(=O)NCCCNc1nc2c(C)cccc2cc1C#N
    2%	3%
Cc1ccc(C)c(N2CCN(S(=O)(=O)c3ccc4[nH]c(=O)ccc4c3)CC2)c1
    ?	i
CCc1ccc(CNc2ccc(O)cc2)cc1
    0%	-11%
Cc1nonc1CC(=O)N1CCc2c([nH]c3ccccc23)C1c1ccccc1F (stereo not given)
    -17%	-16%
COc1cccc(C(=O)OCCNC(=O)c2cccnc2)c1
    -11%	-24%
CC(NC(=S)Nc1c(Cl)cccc1OC(F)F)C(C)(C)C (stereo not given)
    -5%	i
CCc1ccc(NC(=O)c2sc(-n3nc(C)c(CCC(C)C)c3C)nc2C)cc1
    -6%	-11%
CCOc1ccc(CNC(=O)C2CCN(S(=O)(=O)N3CCCC3)CC2)cc1OC
    0%	-7%
CCn1c2ccccc2c2cc(N=C3SC(CC(=O)Nc4ccccc4OC)C(=O)N3CCOC)ccc21 (stereo not given)
    -12%	?
C=CCNc1nc(Cl)nc(NCc2ccco2)n1
    -3%	-19%
N#Cc1c(N2CCOCC2)nsc1-c1ccc(C(F)(F)F)cc1
    -19%	-12%
C=CCn1c(SCC(=O)Nc2ccccc2C)nc(O)cc1=O
    -14%	i
COc1ccc(Cn2c(C(=O)O)c(CNCc3ccc(C)o3)c3ccc(OC)cc32)cc1
    -11%	1%
COc1ccc(NS(=O)(=O)c2ccc3c(c2)CCN3C(=O)C2CC2)cc1OC
    -26%[7.34 µM]	-16%[7.34 µM]
Cc1ccc(C(C(=O)NCc2ccco2)N(Cc2ccco2)C(=O)CNC(=O)c2ccco2)cc1 (stereo not given)
    ?	-25%
CCCSc1nc(N)cc(=O)[nH]1
    -13%	-1%
COc1ccc(-c2cc(C(F)(F)F)nc(NCCc3ccccc3)n2)cc1OC
    0%	-2%
CCCN1CCC(C)(C(=O)Nc2cccc(OC(C)C)c2)C1 (stereo not given)
    -1%	i
CCOC(=O)c1c(C)[nH]c(C)c1C(=O)COC(=O)c1cc2ccccc2cc1O
    -20%	i
Cc1ccc(C)c(NC(=S)Nc2ncccc2C)c1
    -14%	-16%
O=c1c2[nH]c3cccc(Cl)c3c2ncn1Cc1ccco1
    -15%	-2%
CCN(CC)CCCNC(=O)CN1C(=O)CCn2nc(-c3cn(C)c4ccccc34)cc21
    -4%	-11%
Cc1ccccc1NC(=O)CSc1nc(-c2cccs2)nc2cc(=O)[nH]n12
    -14%	-21%
COc1ccccc1C(CC(N)=O)c1ccco1 (stereo not given)
    -13%	/
O=C(OCC(=O)N1CCCCC1)c1cccs1
    3%	?
COc1ccc(NC(=O)CN(C)C(=O)c2cccc(S(=O)(=O)N3CCN(Cc4ccccc4)CC3)c2)cc1
    -17%	-3%
COc1ccc(/C=C2\SC(=S)N(Cc3cccnc3)C2=O)cc1C
    5%	-6%
COc1cc2nc(C#N)nc(N)c2cc1OC
    -6%	-10%
COc1cc(C)nc(N(C)S(=O)(=O)c2ccccc2Cl)n1
    -28%	-25%
CC(O)CNCCCCOc1ccc(OCc2ccccc2)cc1 (stereo not given)
    -5%	-12%
S=c1[nH]nc2ccccn12
    -5%	i
O=C(NNc1c(Cl)cccc1Cl)c1c(F)cccc1Cl
    -7%	-3%
COc1ccc(S(=O)(=O)N(CC(=O)NC2CCCC2)c2ccccc2OC)cc1
    -13%	-6%
COc1ccc(NC(=O)N2CCCC(C(=O)NCCc3ccccc3)C2)cc1 (stereo not given)
    3%	-13%
Cc1cccn2c(=O)cc(COC(=O)C(C)Oc3ccccc3)nc12 (stereo not given)
    -9%	-8%
CCOC(=O)CCc1ccc(NC(=O)/C=C/c2ccc([N+](=O)[O-])o2)cc1
    13µM*	?
O=C(Nc1ccccc1)OCc1cc(-c2ccccc2Cl)on1
    4%	/
CN(Cc1nc(-c2cnccn2)no1)C1CC(C)(C)NC(C)(C)C1
    -6%	-7%
Cc1cc(-c2ccc(C)c(S(=O)(=O)Nc3ccccn3)c2)on1
    -11%	-10%
O=C(Nc1ccc(F)cc1F)c1cc(-c2ccccc2O)no1
    -18%	-13%
Cn1c(CNS(=O)(=O)c2ccc(Cl)cc2)cc(=O)n(C)c1=O
    -16%	-13%
Cc1cccc(N=C2NC(=O)/C(=C3/C(=O)N(C)c4ccccc43)S2)c1C
    -9%	-7%

Other structures
Second line of a record – VACV Venus inh	VACV mCherry inh
COc1cc(O)c(C(=O)O)c(CCc2ccccc2)c1
    -5%	-23%
CCOc1ccc(CCNC(=O)C2CSC3(C)CCC(=O)N23)cc1OCC (stereo not given)
    -11%	-13%
CCCn1ccc2c(OCC(=O)Nc3ccc(OC)c(OC)c3)cccc2c1=O
    -18%	-9%
CC(C)OCCCNC(=O)c1ccc2c(c1)S(=O)(=O)c1ccccc1C2=O
    -4%	-15%
O=C(Cc1ccccc1)N/N=C/c1ccc2c(c1)OCO2
    0%	-1%
Cc1ccc2c(c1)cc(C(=O)NCc1ccccc1C)n2C
    -8%	10%
